Source: PubChem (several laboratories)
VCAM-1 up imaging: enhancers of VCAM-1 display on endothelial cells, imaging, high-content imaging, pooled HUVEC, TNFa stimulus (AID 457). Pooled HUVEC, TNFa-induced VCAM-1 immunofluorescence imaging; hits of this screen are not shown here. calls only. 0.2% of 10,000 active;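 active means a top-ranked rise in VCAM-1 staining upheld on image or statistical review; inactive means the rest, including candidates rejected on review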;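 further: compounds tested at 5 µM in the well; cells exposed to compound for 24 hours before fixing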
FPRL1 ligand: ligands of human FPRL1, also counter-screen for FPR ligands. AID 441. FPRL1-expressing cells, fluorescent ligand binding inhibition, flow cytometry. 0.3% of 24,000 active. inhibition, %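 (tested at 6.7 µM)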. P25090;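 further: 0% = buffer alone and 100% = receptor blocker peptide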
Target sequence (P25090 whole entry, looked up): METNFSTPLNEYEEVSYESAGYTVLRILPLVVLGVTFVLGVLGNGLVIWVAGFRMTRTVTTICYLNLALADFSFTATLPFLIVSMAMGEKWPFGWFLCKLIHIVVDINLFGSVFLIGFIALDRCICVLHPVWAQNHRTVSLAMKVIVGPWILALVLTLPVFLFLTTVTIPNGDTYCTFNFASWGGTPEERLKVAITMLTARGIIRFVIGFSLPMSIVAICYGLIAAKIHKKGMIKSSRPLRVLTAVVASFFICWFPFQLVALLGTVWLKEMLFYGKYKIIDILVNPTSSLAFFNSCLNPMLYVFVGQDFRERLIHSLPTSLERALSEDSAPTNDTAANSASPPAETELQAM
VCAM-1 down imaging: suppression of endothelial VCAM-1 upregulation – imaging, high-content imaging, pooled HUVEC, TNFa stimulus (AID 456); inhibition, % at 5 µM; hits with a dose series show IC50 in µM; 0.2% of 10,000 active; HUVEC TNFa-induced VCAM-1 surface expression, immunofluorescence imaging; numbers were filed only for top-ranked candidate wells;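 active means top tenth filtered wells with inhibition above zero that passed visual or statistical confirmation; inactive means the rest, including hits rejected on review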;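 further: 0% = stimulated vehicle wells and 100% = unstimulated cells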
FPR binder: binds the human formylpeptide receptor FPR; inhibition, %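 (tested at 6.7 µM)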; 0.74% of 24,000 active; AID 440; FPR-expressing cells, fluorescent ligand binding, flow cytometry; P21462;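 further: 0% = buffer wells and 100% = receptor blocker peptide wells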
Target sequence (P21462 whole entry, looked up): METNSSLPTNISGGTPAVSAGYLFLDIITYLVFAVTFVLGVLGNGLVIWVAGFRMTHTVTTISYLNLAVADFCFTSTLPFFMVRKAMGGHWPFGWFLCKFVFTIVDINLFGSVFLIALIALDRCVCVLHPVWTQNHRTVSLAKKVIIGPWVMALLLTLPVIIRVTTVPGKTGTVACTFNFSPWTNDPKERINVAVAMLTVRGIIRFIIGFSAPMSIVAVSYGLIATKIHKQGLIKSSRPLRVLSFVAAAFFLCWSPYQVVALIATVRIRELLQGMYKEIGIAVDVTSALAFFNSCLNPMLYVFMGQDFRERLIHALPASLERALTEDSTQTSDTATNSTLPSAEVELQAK
VCAM-1 inhibition: inhibitors of TNFa-induced VCAM-1 surface display, cell-based, plate reader, pooled HUVEC, TNFa stimulus (AID 454); HUVEC TNFa-induced VCAM-1 surface immunofluorescence, plate reader; numbers were filed only for top-ranked candidate wells; 0.2% of 10,000 active; inhibition, % at 5 µM;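 active means compound among top-ranked inhibitors of TNF-induced VCAM-1 adhesion protein staining, with the hit upheld by image or statistical review; inactive means the rest, including hits rejected on review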;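 further: 0% = TNFa with vehicle and 100% = cells without TNFa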
The depositor's hits bear a star; i = inactive; x = not tested or not shown.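 How the source made its calls, unless noted: active means mean above 30%; inconclusive means self-fluorescent; inactive means the rest.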

SMILES	VCAM-1 up imaging	FPRL1 ligand	VCAM-1 down imaging	FPR binder	VCAM-1 inhibition
O=C(Nc1cccc2ccccc12)c1ccc(Br)o1	i	-3.8	i	-3.8	i
Cn1c(=O)c2c(nc(Br)n2CCSc2nnnn2-c2ccccc2)n(C)c1=O	i	-0.5	i	-4.9	i
COc1ccc(S(=O)(=O)N2CN(Cc3ccco3)c3nc4ccccc4nc32)cc1	i	-2.5	i	2.1	i
CCOc1ccc(CCNC(=O)C2CCCN(C(=O)N(C)C)C2)cc1OCC (stereo unspecified)	x	0.0	x	0.4	x
Cn1c(=O)c2c(nc(OCc3ccccc3)n2C)n(C)c1=O	x	0.8	x	-2.3	x
CC(=O)NC(C(=O)NCC(N)=O)C(C)C (stereo unspecified)	i	6.5	i	-5.2	i
CCOC(=O)N1CCN(c2c(-c3ccc(C)cc3)c(=O)c2=O)CC1	x	1.3	x	-13.3	x
CCOc1ccc(-n2c(SCC(N)=O)nc3c(c2=O)SCC3)cc1	x	1.5	x	0.0	x
O=C(c1ccc2c(c1)OCO2)N(c1ccc(F)cc1)C1C=CS(=O)(=O)C1 (stereo unspecified)	x	5.7	x	-3.1	x
O=S1(=O)CC(NCc2ccccc2)C(Nc2ccc(Cl)cc2)C1 (stereo unspecified)	x	-2.0	x	-8.4	x
CCOc1ccc(NC(=O)CCNS(=O)(=O)c2ccc3c(c2)c(=O)n(C)c(=O)n3C)cc1	x	11.1	x	-1.5	x
CCN1C(=O)/C(=C2\SC(=S)N(CCCOC)C2=O)c2ccccc21	x	32.8*	x	22.9	x

Of the compounds above, 2 contain a furan ring, fused or not.
SMILES	VCAM-1 up imaging	FPRL1 ligand	VCAM-1 down imaging	FPR binder	VCAM-1 inhibition
O=C(Nc1cccc2ccccc12)c1ccc(Br)o1	i	-3.8	i	-3.8	i
COc1ccc(S(=O)(=O)N2CN(Cc3ccco3)c3nc4ccccc4nc32)cc1	i	-2.5	i	2.1	i

Next section:
SMILES	VCAM-1 up imaging	FPRL1 ligand	VCAM-1 down imaging	FPR binder	VCAM-1 inhibition
COc1ccc(CCNC(=O)c2ccc3c(c2)NC(=O)C(N2CCOCC2)S3)cc1OC (stereo unspecified)	x	0.3	x	3.8	x
COc1cccc(C2=NOC(C(=O)Nc3ccc(C(C)=O)cc3)C2)c1 (stereo unspecified)	i	0.3	i	1.1	i
CCOC(=O)N1CCN(C(=O)CSc2nnc(-c3ccc(Cl)s3)o2)CC1	x	6.9	x	-12.2	x
O=C(CCN1C(=O)COc2ccccc21)NCCN1CCN(c2ccccc2F)CC1	x	-0.3	x	1.1	x
CCOC(=O)N1CCN(C(=O)CN(C)S(=O)(=O)c2ccc3c(c2)C(C)(C)C(=O)N3C)CC1	x	0.7	x	-2.3	x
CN(CC(O)COc1ccc(OCC(O)CN(C)C2CCCCC2)cc1)C1CCCCC1 (stereo unspecified)	i	-4.4	i	-1.1	i
COC(=O)C1=CN(C)C=C(C(=O)OC)C1c1ccc(O)c(OC)c1	i	6.7	i	1.9	i
O=C(Nc1ccccc1C(=O)NCC1CCCO1)c1ccco1 (stereo unspecified)	i	1.7	i	0.4	i
O=C1NCCCC1C(=O)Nc1cccc(C(F)(F)F)c1 (stereo unspecified)	x	2.5	x	-0.1	x
CC1=C(C(=O)OC(C)C)C(c2cccc(F)c2)N2C(=O)C(C)SC2=N1 (stereo unspecified)	x	2.5	x	-9.1	x
CCOc1ccc(NC(=O)CN2CCN(CC(=O)Nc3ccc(F)cc3)CC2)cc1	x	-10.4	x	-5.6	x
Cc1ccc(S(=O)(=O)NCCCCC(NC(=O)OC(C)(C)C)C(=O)O)cc1 (stereo unspecified) (tested in a mixture with another compound)	i	-3.2	i	2.9	i
O=C(COc1nnnc2ccccc12)N1CCCc2ccccc21	i	-2.3	i	-4.5	i
CCC(C(=O)N1CCc2cc(OC)c(OC)cc2C1)c1ccccc1 (stereo unspecified)	i	6.8	i	-10.2	i
O=c1c2ccccc2n(Cc2cccc(F)c2)c(=O)n1C1CCCC1	x	-2.8	x	-4.3	x
Cc1ccnc2c(N3C(=O)C4C5C=CC(C5)C4(C)C3=O)cccc12 (stereo unspecified)	i	3.9	i	3.4	i
COC(=O)Nc1ccc2c(c1)ncn2C1CCCCC1	x	0.3	x	-4.6	x
CCOC(=O)C(C(=O)OCC)C(CC(=O)C1CC1)c1ccccc1 (stereo unspecified)	x	-1.4	x	1.9	x
Cn1nc(-c2ccc(Cl)cc2)c2cc(C(=O)N3CCN(C(=O)c4ccco4)CC3)sc21	x	0.6	x	9.4	x
CCOc1cc(NC(=O)c2ccco2)c(OCC)cc1NC(=O)CCC(=O)NCc1cccnc1	i	1.0	i	1.5	i
CC(NC(=O)OC(C)(C)C)C(=O)N1CCCC1C(=O)NC(Cc1ccccc1)C(N)=O (stereo unspecified)	i	-2.3	i	-5.5	i
COc1ccc(-n2ccnc2SCC(=O)NCc2ccc3c(c2)OCO3)cc1	i	-0.2	i	2.4	i
O=C(Nc1ccccc1C(=O)N1CCCCC1)c1cccc(S(=O)(=O)N2CCOCC2)c1	x	-2.8	x	3.6	x
CCN1C(=O)/C(=C/N(C)c2ccccc2)OC1=S	i	-0.5	i	-4.1	i
Cc1cc(C(=O)NCc2ccccc2)no1	x	-0.3	x	2.3	x
C=CCSc1nc2c(c(=O)[nH]c(=O)n2C)n1C(C)C	i	-2.3	i	-7.7	i
CCOC(=O)N1CCN(c2c(NCc3ccccn3)c(=O)c2=O)CC1	x	5.1	x	-6.3	x
CCOC(=O)c1ccc(NC(=O)CCNc2c(N3CCCC3)c(=O)c2=O)cc1	i	-0.7	i	-2.2	i
COc1ccccc1C1N(c2cc(Cl)ccc2OC)C(=O)C2CCCN21 (stereo unspecified)	x	-6.8	x	0.4	x
O=C(Nc1cc(Cl)ccc1Cl)c1noc2c1CCCC2	i	-2.0	i	-2.6	i
O=C(NCc1cccs1)c1noc2c1CCCCC2	x	2.1	x	0.5	x
COc1cccc(C2Nc3ccccc3C(=O)N2O)c1O (stereo unspecified)	x	-7.9	x	10.3	x
CCOC(=O)Cc1csc(NC(=O)CN(C)S(=O)(=O)c2cccc3cccnc23)n1	x	5.7	x	-0.3	x
Cc1cccc(NC(=O)Nc2cccc(C#N)c2)n1	i	-0.9	i	-3.1	i
c1cncc(-c2nc3c4ccccc4nc(N4CCC(N5CCCCC5)CC4)n3n2)c1	i	-2.4	i	-1.2	i
Cc1ccccc1CS(=O)(=O)CCC(=O)NCCCN1CCOCC1	x	-8.1	x	1.6	x
COC(=O)CN(Cc1ccco1)S(=O)(=O)c1ccccc1	i	-4.8	i	2.9	i
CCOC(=O)N1CCC(NC(=O)c2ccc3c(c2)sc2nc(-c4ccccc4)cn23)CC1	x	-1.6	x	5.8	x
CC1CC(C)CN(CCCNC(=O)c2ccc3c(c2)NC(=O)C(N2CCCCC2)S3)C1 (stereo unspecified)	i	-7.8	i	-4.2	i
O=c1[nH]c2sc3c(c2c2nncn12)CCCC3	i	-0.6	i	0.5	i
CCOc1ccc(C2c3c(oc4ccccc4c3=O)C(=O)N2CCCN2CCOCC2)cc1OCC (stereo unspecified)	x	-1.8	x	2.1	x
COc1cc(C(=O)NCc2nnc(SCC(=O)N3CCc4ccccc43)o2)cc(OC)c1OC	x	5.2	x	-4.9	x
O=C(O)c1cc2c(s1)CCCC2	i	-6.8	i	-0.3	i
CSc1nsc(SC)c1NC(=O)Nc1ccccn1	x	0.0	x	-6.4	x
Cc1cn(C2CC3OCC3O2)c(=O)[nH]c1=O (stereo unspecified)	i	2.8	i	-1.5	i
CC(C)CCNC(=O)Cn1cc2c(n1)CCCCC2	x	7.1	x	-2.1	x
CCOc1ccccc1C(=O)NCCC(=O)O	i	3.1	i	-7.1	i
O=C(C1CC1)N1CCc2cc(S(=O)(=O)N(CCO)Cc3ccccc3)ccc21	i	-4.4	i	-2.6	i

One compound at a time, as listed above:
O=C(O)c1cc2c(s1)CCCC2 across the screens: VCAM-1 up imaging: i; FPRL1 ligand: -6.8; VCAM-1 down imaging: i; FPR binder: -0.3; VCAM-1 inhibition: i
CC1CC(C)CN(CCCNC(=O)c2ccc3c(c2)NC(=O)C(N2CCCCC2)S3)C1 (stereo unspecified) across the screens: VCAM-1 up imaging: i; FPRL1 ligand: -7.8; VCAM-1 down imaging: i; FPR binder: -4.2; VCAM-1 inhibition: i

Next section
SMILES	VCAM-1 up imaging	FPRL1 ligand	VCAM-1 down imaging	FPR binder	VCAM-1 inhibition
COc1ccc(N2CC(C(=O)Nc3ccc(F)cc3F)CC2=O)cc1 (stereo unspecified)	i	-0.1	i	-2.3	i
COC(=O)[C@H](C)NC(=O)Nc1cccc(C(F)(F)F)c1	i	6.4	i	-7.5	i
CCOC(=O)c1sc2nc3n(c(=O)c2c1C)CCC(C)CC3 (stereo unspecified)	x	-1.5	x	0.8	x
CCNc1nc(NC(C)C)nc(N(C#N)CCOc2ccc(Cl)cc2Cl)n1	i	-3.6	i	-13.7	i
CCOC(=O)N1CCC(N2CC34C=CC(O3)C(C(=O)Nc3ccc(OCC)cc3)C4C2=O)CC1 (stereo unspecified)	x	1.8	x	0.5	x
CCOC(=O)c1ccc(NS(=O)(=O)c2ccc(SC)cc2)cc1	i	-3.7	i	1.7	i
COc1ccc(-c2ccc(-c3nnn(CC(C)=O)n3)cc2)cc1	i	-5.4	i	-5.4	i
COc1ccc(NC2c3ccccc3C(=O)N2c2cccnc2)cc1Cl (stereo unspecified)	x	-0.9	x	4.7	x
Nc1nc2n(n1)C(c1ccccc1Cl)CC(c1ccc(F)cc1)N2 (stereo unspecified)	x	-4.4	x	1.0	x
Cc1cc(=O)n2nc(N3CCCC(C(=O)NCc4ccco4)C3)sc2n1 (stereo unspecified)	x	-1.7	x	-0.6	x
COCCN1Cc2cccc(C(=O)Nc3ccc(C)c(C)c3)c2C1=O	x	-1.0	x	6.1	x
COc1ccc(NC(=O)CN2CCN(CC(=O)Nc3cc(OC)cc(OC)c3)CC2)cc1	i	-0.8	i	-2.1	i
CCN(CCCNC(=O)c1c(C)cc(=O)oc1C)c1ccccc1	x	-9.6	x	4.1	x
CCCc1cc(=O)[nH]c(Nc2ccc(OC)c(Cl)c2)n1	i	2.0	i	2.5	i
COc1ccc(C(CC(=O)O)NC(=O)c2ccccc2)cc1OC (stereo unspecified)	i	-2.2	i	2.6	i
COc1cccc(N2C(=O)Nc3ccccc3C2(O)C(=O)NCc2ccc3c(c2)OCO3)c1 (stereo unspecified)	x	-5.8	x	-3.3	x
CO[C@@]1(NC(=O)CSCC#N)C(=O)N2C(C(=O)O)=C(CSc3nnnn3C)CS[C@@H]21	i	1.4	i	-2.0	i
CCC(C)NC(=O)C1c2ccccc2C(=O)N1Cc1ccccc1OC (stereo unspecified)	x	4.5	x	6.6	x
COc1ccc(-c2ccc(Nc3ccc(S(=O)(=O)N4CCCC4)cc3)nn2)cc1OC	i	2.7	i	-6.4	i
COc1cccc2sc(=NC(=O)c3ccc(S(=O)(=O)N4CCOCC4)cc3)n(C)c12	x	-0.2	x	0.8	x
COc1ccc(N2C(=O)C3CCCN3C2c2cccc(C)c2)cc1 (stereo unspecified)	x	-0.3	x	-8.3	x
CCOCCCNS(=O)(=O)c1cc(Br)cc2c1N(C(=O)C1CC1)CC2	x	-14.2	x	-8.4	x
CCOC(=O)c1cc(C)sc1N1C(=O)C2C3C=CC(C3)C2C1=O (stereo unspecified)	i	22.9	i	-2.2	i
CN1CC[n+]2cnc3ccccc3c21	i	1.7	i	-0.2	i
COc1ccc(C(=O)Nc2cc(Cl)ccc2Cl)c(OC)n1	x	13.9	x	-1.1	x
COc1cccc(-c2cc(C(=O)N3CCc4ccccc4C3)no2)c1	i	-4.1	i	-0.3	i
COc1ccc(Cn2nnc3c(=O)[nH]c(C4CCCN(C(=O)c5ccccc5)C4)nc32)cc1 (stereo unspecified)	x	0.9	x	-1.3	x
CC(=O)NC(Cc1ccc(F)cc1)C(=O)O (stereo unspecified)	x	1.4	x	3.2	x
COc1cc(-c2nc3n(n2)C(c2ccc(F)cc2)C2=C(CCCC2=O)N3)cc(OC)c1OC (stereo unspecified)	x	5.6	x	1.6	x
Nc1cc(=O)[nH]c(SCC(=O)Nc2ccc(Br)cc2)n1	i	0.7	i	-7.4	i
CCc1ccc(NC(=O)c2cc(-c3ccc(OC)cc3)on2)cc1	x	7.1	x	5.9	x
Cc1ccc(C)c(N2CCN(Cc3nnnn3C3CCCCC3)CC2)c1	i	-4.8	i	2.6	i
OC(CN1CCCCC1)Cn1c(C(F)(F)F)nc2ccccc21 (stereo unspecified)	i	-4.6	i	-2.5	i
COC(=O)Cn1c(CCS(=O)(=O)c2ccc(C)c(C)c2)nc2ccccc21	x	2.2	x	-4.6	x
Cc1cc(C)nc(SCC(=O)Nc2ccc(S(=O)(=O)Nc3onc(C)c3C)cc2)n1	x	-2.8	x	0.9	x

Not all compounds are listed; count on the stated rates, not on these rows.
